Screening data deposited in PubChem BioAssay by National Center for Advancing Translational Sciences (NCATS).
VACV Venus inh – vaccinia inhibition (Venus reporter) | 330,000 compounds, 0.46% hits | Potency, µM (top dose mostly 36.5 µM), inactives show at the top dose activity change, negative = inhibition, usual class: inhibitors | Vaccinia virus Venus reporter expression, fluorescence; active means well fitted inhibition curve with a large enough effect; inconclusive means small, poorly fitted or top-dose-only effect; inactive means no such curve, though single readings can be large or run the other way; tested in A549 cells; note: nearly all actives have a fitted effect of over 30% in size; inactives centre near -10
VACV mCherry inh – vaccinia inhibition (mCherry reporter) | Vaccinia virus mCherry reporter infection, fluorescence; about a quarter of the inactives have no number | Potency, µM (highest dose often 36.5 µM), without a hit: at the highest dose activity change, negative = inhibition, usual class: inhibitors | 310,000 compounds, 0.63% hits; active = well fitted inhibition curve with a large enough effect; inconclusive = small, poorly fitted or top-dose-only effect; inactive = no such curve, though single readings can be large or run the other way; tested in A549 cells; note: nearly all actives have a fitted effect of over 35% in size; inactives centre near -10
* = called active by the depositor; i = inactive; ? = inconclusive; nt = no result given. % is set by controls: 0 for no effect and ±100 for the full control effect; potency is the fitted concentration of half-maximal effect.

SMILES | VACV Venus inh | VACV mCherry inh
CCCCc1cc(=O)oc2cc(C)c3c(C)coc3c12 | 5% | -5%
Cc1c(C(=O)N2CCN(c3ccc([N+](=O)[O-])cc3)CC2)sc2ncn(CC(=O)N3CCOCC3)c(=O)c12 | -9% | -22%
C[C@H](CO)N1C[C@H](C)[C@@H](CN(C)CC2CCCCC2)Oc2c(NC(=O)CCC(F)(F)F)cccc2C1=O | ? | -9%
O=C(Cn1ncc2c3ccccc3n(Cc3cccc(Cl)c3)c2c1=O)NCC1CCCO1 (stereo not given) | -13% | i
C[C@@H]1COC(=O)[C@@H](CC(=O)OC(C)(C)C)C/C=C\C[C@@H](CC(=O)N[C@H](CO)Cc2ccccc2)C(=O)N1 | -11% | i
O=C(CNc1cccc([N+](=O)[O-])c1)NCCCc1ccccc1 | -28% | -12%
N#Cc1c(/N=C/C2C(=O)NC(=S)NC2=O)sc2c1CCCC2 | 5% | ?
CC(C)(C)NC(=O)c1cc(NC(=O)c2cccs2)cc(NC(=O)c2cccs2)c1 | -8% | i
CCOC(=O)[C@H](O)[C@@H](O)c1cccc([C@H](O)[C@@H](O)C(=O)OCC)c1 | -11% | i
Cc1ccc(C23CC4CC(CC(NC(=O)N5CCN(C)CC5)(C4)C2)C3)cc1 | ? | nt
CC(C)(C)OC(=O)N[C@@H](Cc1ccccc1)c1nnc(S(=O)(=O)Cc2cccc(F)c2)o1 | ? | nt
NC(=O)c1ccsc1NC(=O)COC(=O)Cc1n[nH]c(=O)c2ccccc12 | -2% | -6%
Cc1n[nH]c2c([N+](=O)[O-])c(=O)[nH]c(=O)n12 | -6% | -8%
O=C(Cn1cnc2ccccc2c1=O)c1ccc(Cl)cc1 | -16% | -8%
Cc1ccc(-c2nc(CS(=O)CC(=O)NCCC(C)C)c(C)o2)cc1 (stereo not given) | -18% | 8%
C=CCNC(=O)c1ccc(NC(=O)CC2SC(N3CCCC3)=NC2=O)cc1 (stereo not given) | -13% | -18%
CC(C)CNc1nc(Oc2ccc(=O)n(-c3ccccc3)n2)nc(N2CCOCC2)n1 | -5% | nt
CC1(C)Cc2c(cnn2-c2cccc(F)c2)C(NC(=O)CCN2CCCC2=O)C1 (stereo not given) | -3% | -4%
CC(=O)c1ccc(N(CC(=O)NCC2CCCO2)C(=O)CCC(=O)Nc2cc(C)on2)cc1 (stereo not given) | -15% | -14%
NC(=O)N/N=C/c1cn(CC(=O)Nc2ccc(F)cc2)c2ccccc12 | -4% | -10%
CCN(CC)CCCNC(=S)N(Cc1cccnc1)Cc1cc2cc(C)cc(C)c2[nH]c1=O | -9% | i
CC(=O)Nc1ccc(C(=O)OCCc2ccccc2)cc1 | -8% | -6%
COc1ccc(NC(=S)Nc2ccc(Oc3ccccc3)cc2)cc1 | ? | nt
CC(=O)n1cc([C@H]2C=C(C(=O)N3CCOCC3)O[C@@H](OCCCCO)C2)c2ccccc21 | -3% | i
Cc1ccccc1OCC(=O)NCCNC(=O)c1ccncc1 | 0% | 5%

Later entries:
SMILES | VACV Venus inh | VACV mCherry inh
CN1CCN(CC(=O)Nc2c(C#N)cnn2-c2ccccc2)CC1 | -7% | i
N/C(=N\N=C\c1ccc(O)cc1)c1nonc1N | 1% | i
NC(N)=NC(=O)c1nc(Cl)c(N)nc1N | -24% | ?
CN(C)c1ccc(NC(=O)c2cccc(C(=O)Nc3ccc(N(C)C)cc3)n2)cc1 | -15% | i
O=C(Cc1cccc(C(F)(F)F)c1)NCc1cccc(Cl)c1 | -11% | 0%
COc1ccc(C(=O)O/N=C(\N)c2ccccc2)cc1OC | -14% | -13%
COc1ccc(-c2[nH]ncc2CN2CCCO2)cc1F | -14% | i
Cn1c(O)c(N=NC(=O)c2cccc(S(=O)(=O)N3CCCCC3)c2)c2ccccc21 | -23% | -13%
COc1cc(CN2CCC(n3nccc3NC(=O)C3CCOC3)CC2)ccc1F (stereo not given) | -9% | i
O=C(N/N=C/c1c[nH]c2ccccc12)c1ccccc1Cl | -8% | -15%
O=C(Cn1c(=O)c2cccn2c2cccnc21)NCc1ccccc1F | -10% | -11%
O=C(Nc1cccc(S(=O)(=O)N2CCOCC2)c1)c1ccco1 | 1% | -3%
CCOC(=O)c1cc(OCc2csc(-c3ccccc3)n2)cc(C(=O)OCC)c1 | -11% | -8%
CC(=O)c1cc2c(cc1NS(=O)(=O)c1ccccc1F)OCO2 | -15% | i
Cc1ccc2oc(C(=O)Nc3cccc(Cl)c3)cc(=O)c2c1 | -21% | -7%
CC1(C)C(C=C(Cl)Cl)C1C(=O)N(Cc1ccc(Cl)cc1)C1CCS(=O)(=O)C1 (stereo not given) | -7% | -19%
O=c1[nH]c2ccccc2c(=O)c2ccccc12 | -8% | -9%
CC(Cc1ccccc1)C(=O)N(C)Cc1ccccc1 (stereo not given) | -18% | -14%
CCCC[N+]1(C)[C@@H]2CC(OC(=O)[C@H](CO)c3ccccc3)C[C@H]1[C@@H]1O[C@@H]12 (stereo not given in full) | -6% | -11%
COc1cc(/C=C(\C#N)c2[nH]nc(N)c2C#N)cc(OC)c1O | 18% | -7%
CCOCCCNC(=O)NC(CCC(C)C)c1c(-n2cccc2)sc2c1CCN(C)C2 (stereo not given) | -11% | -13%
CCOC(=O)c1cccc(NC(=O)CCCn2c(C)c3cnn(-c4ccccc4)c(=O)c3c2C)c1 | -7% | -10%
CCC(=O)c1c[nH]c(C(=O)NCC2CCCO2)c1 (stereo not given) | -10% | nt
CC(=O)Nc1ccc(S(=O)(=O)NCCC(=O)N2CCN(C(c3ccccc3)c3ccccc3)CC2)cc1 | -15% | -2%
CCOc1ccc2c(c1)-c1c(ssc1=S)C(C)(C)N2C(=O)CSC1=NCCS1 | -12% | -16%

(next part)
SMILES | VACV Venus inh | VACV mCherry inh
Cc1ncc(S(=O)(=O)c2ccc(Cl)cc2)c(N)n1 | -14% | -14%
O=S(=O)(Nc1cccc(S(=O)(=O)N2CCOCC2)c1)c1ccc(Cl)s1 | -15% | i
COC(=O)c1cc(=O)n(-c2ccccc2)c(=Nc2ccccc2)s1 | 5µM* | ?
N#Cc1c(-c2ccccc2)nc(N2CCOCC2)[nH]c1=O | -17% | nt
Nc1nc2c(ncn2[C@@H]2O[C@H](CNC(=O)[C@H](N)Cc3ccccc3)[C@@H](O)[C@H]2O)c(=O)[nH]1 | 4% | i
Cc1ccccc1Oc1ccc2c(c1)[C@@H]1C[C@H](N(C)C(=S)Nc3ccc(F)cc3)[C@H]([C@H](C)O)C(=O)N1CC2 | ? | -19%
CC1C=Cc2ccccc2N1C(=O)c1ccccc1 (stereo not given) | -15% | i
CC1CN(N=Cc2ccc([N+](=O)[O-])o2)C(=N)O1 (stereo not given) | ? | -2%
Cc1ncc2c(c1CNC(=O)c1cncs1)CCN(C(=O)c1ccsc1)C2 | -9% | -14%
Cc1c([N+](=O)[O-])cnc2ccccc12 | -17% | i
CC(C)n1c(O)c(/C=C2\C=NN=C2c2ccccc2)sc1=S | -24% | -11%
COc1cc(C2c3c(-c4ccccc4O)n[nH]c3C(=O)N2Cc2ccncc2)ccc1O (stereo not given) | 4% | -8%
O=C(OCC(=O)c1cccs1)C1=COCCO1 | -9% | nt
O=C(Nc1ccncc1)OCc1ccccc1 | -7% | -11%
N#CCN1CCN(CCC(=O)Nc2ccc(OCc3ccccc3)cc2)CC1 | -10% | nt
Cc1ccccc1-c1nc(CN2CCCC(C(=O)NCc3ccc(Cl)cc3)C2)c(C)o1 (stereo not given) | -20% | -6%

A different layout for 4 compounds above:
mol	VACV Venus inh	VACV mCherry inh
N#Cc1c(-c2ccccc2)nc(N2CCOCC2)[nH]c1=O	-17%	nt
Nc1nc2c(ncn2[C@@H]2O[C@H](CNC(=O)[C@H](N)Cc3ccccc3)[C@@H](O)[C@H]2O)c(=O)[nH]1	4%	i
Cc1ccccc1Oc1ccc2c(c1)[C@@H]1C[C@H](N(C)C(=S)Nc3ccc(F)cc3)[C@H]([C@H](C)O)C(=O)N1CC2	?	-19%
CC1C=Cc2ccccc2N1C(=O)c1ccccc1 (stereo not given)	-15%	i

Of the compounds above, 11 contain an NH in an aromatic ring.
SMILES | VACV Venus inh | VACV mCherry inh
NC(=O)c1ccsc1NC(=O)COC(=O)Cc1n[nH]c(=O)c2ccccc12 | -2% | -6%
Cc1n[nH]c2c([N+](=O)[O-])c(=O)[nH]c(=O)n12 | -6% | -8%
CCN(CC)CCCNC(=S)N(Cc1cccnc1)Cc1cc2cc(C)cc(C)c2[nH]c1=O | -9% | i
COc1ccc(-c2[nH]ncc2CN2CCCO2)cc1F | -14% | i
O=C(N/N=C/c1c[nH]c2ccccc12)c1ccccc1Cl | -8% | -15%
O=c1[nH]c2ccccc2c(=O)c2ccccc12 | -8% | -9%
COc1cc(/C=C(\C#N)c2[nH]nc(N)c2C#N)cc(OC)c1O | 18% | -7%
CCC(=O)c1c[nH]c(C(=O)NCC2CCCO2)c1 (stereo not given) | -10% | nt
N#Cc1c(-c2ccccc2)nc(N2CCOCC2)[nH]c1=O | -17% | nt
Nc1nc2c(ncn2[C@@H]2O[C@H](CNC(=O)[C@H](N)Cc3ccccc3)[C@@H](O)[C@H]2O)c(=O)[nH]1 | 4% | i
COc1cc(C2c3c(-c4ccccc4O)n[nH]c3C(=O)N2Cc2ccncc2)ccc1O (stereo not given) | 4% | -8%

Compounds as they come. Share with any hit: about 0.87%.
